Bioassay records from PubChem.
PKD1 inh: blocks activity of human protein kinase D1. Q15139. PKD1 kinase fluorescence polarization assay. inhibition, %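 (about 10 µM by stock and volumes)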. 200,000 tested, 0.056% active. AID 797;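 active = inhibition of 50% or more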;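 note: controls were vehicle for no effect and a reference inhibitor for full effect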
INS promoter inh: TRM-6 insulin promoter activity inhibition; inhibition, % at 2 µM; 130,000 tested, 0.9% active; TRM-6 cells (human fetal islet line), insulin promoter-eGFP reporter, imaging; reporter expression induced with tamoxifen;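 active = inhibition above the mean plus 3 SD, with well images judged a real hit on visual review, cut at about 60% in these data, passing the limit was not always enough; inconclusive = inhibition over the cutoff but images rejected on review; inactive = inhibition not above the cutoff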
RGS16-Gao: modulates binding between human RGS16 and Galphao; O15492+P09471; bead-based flow cytometry RGS16-Galphao binding, fluorescence; actives lie on both sides; binding response (% of control), % at 10 µM; 220,000 tested, 0.38% active; AID 1441;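 active = below 25% or above 175%, edge rows of some plates excepted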;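 note: Galphao activated by GDP with aluminum fluoride before binding; 100% = wells without compound and 0% = beads without RGS; some results beyond the cut were filed as inactive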
Target sequence (O15492 whole entry, looked up): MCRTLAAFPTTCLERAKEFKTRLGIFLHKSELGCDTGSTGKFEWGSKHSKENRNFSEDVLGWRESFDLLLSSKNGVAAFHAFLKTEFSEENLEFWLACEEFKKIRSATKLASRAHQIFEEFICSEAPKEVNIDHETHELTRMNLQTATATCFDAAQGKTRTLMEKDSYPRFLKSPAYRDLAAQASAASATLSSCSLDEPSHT
Target sequence (P09471 whole entry, looked up): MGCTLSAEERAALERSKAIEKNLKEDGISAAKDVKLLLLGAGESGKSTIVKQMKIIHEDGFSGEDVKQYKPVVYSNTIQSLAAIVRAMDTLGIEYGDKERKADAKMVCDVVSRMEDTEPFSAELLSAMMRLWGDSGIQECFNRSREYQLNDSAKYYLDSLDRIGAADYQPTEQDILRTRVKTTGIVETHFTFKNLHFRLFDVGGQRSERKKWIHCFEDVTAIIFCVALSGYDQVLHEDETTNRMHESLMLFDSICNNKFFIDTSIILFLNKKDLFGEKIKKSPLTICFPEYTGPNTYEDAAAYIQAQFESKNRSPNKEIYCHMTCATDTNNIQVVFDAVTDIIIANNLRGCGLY
GALR2 ag: GALR2 (human) receptor agonism; O43603; 140,000 tested, 0.48% active; GALR2-expressing cells, agonist activation read-out; activation, %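 (tested at 5 µM)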;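 active = above mean plus 3 SD of all compounds, about 5% in these data, not always enough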;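 note: 0% = vehicle buffer wells and 100% = reference agonist at full effect; tested in CHO reporter cells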
Target sequence (O43603 whole entry, looked up): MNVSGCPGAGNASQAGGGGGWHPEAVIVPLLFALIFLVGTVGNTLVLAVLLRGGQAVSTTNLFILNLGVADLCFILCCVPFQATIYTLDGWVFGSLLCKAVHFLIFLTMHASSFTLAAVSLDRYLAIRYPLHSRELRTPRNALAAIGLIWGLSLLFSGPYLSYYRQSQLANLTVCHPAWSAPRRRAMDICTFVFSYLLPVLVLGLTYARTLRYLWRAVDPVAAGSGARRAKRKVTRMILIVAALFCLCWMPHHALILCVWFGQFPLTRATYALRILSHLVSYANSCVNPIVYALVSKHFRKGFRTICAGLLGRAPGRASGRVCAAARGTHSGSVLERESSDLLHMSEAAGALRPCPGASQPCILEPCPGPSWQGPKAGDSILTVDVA
HSV augment: increases HSV replication in cells; HSV replication augmentation in cells, fold increase; maximum fold increase; 220,000 tested, 0.005% active;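 active = peak rise of 1.5-fold or more in the series; inconclusive = self-fluorescent or not available for retest; tested in PC3 cells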;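 note: first round at 10 µM; read as green reporter fluorescence; hits show the peak of a series up to 25 µM; 1 = signal of infected wells without compound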
INS promoter inh cell count: also measured in INS promoter inh; calls as there; normalized cell count, %; measured here: cell count, toxicity; reference of the scale not given here;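 cells exposed to compound for 48 h; stained nuclei by imaging scaled within each plate; lower means fewer cells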
HSV augment primary fold: second read-out of HSV augment, no call of its own (marks repeat the call); fold increase; compound at 10 µM; measured here: primary screen fold increase 10 uM; tested in PC3 cells;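 GFP signal in the first replicate; 1 = infected wells without compound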
* = called active by the depositor; i = inactive; ? = inconclusive; · = not tested or not shown. No enrichment for hits; 1.3% or so of the library scored in one or more.

SMILES	PKD1 inh	INS promoter inh	INS promoter inh cell count	RGS16-Gao	GALR2 ag	HSV augment	HSV augment primary fold
CC1CC(C)CN(c2cc(=O)n(Cc3ccc(F)cc3)c(=O)[nH]2)C1 (centres undefined)	17.9	·	·	127.8	-2.3	i	0.89
O=C(N/N=C/c1ccc(OC(=O)c2ccccc2)cc1)c1cccc(O)c1	-6.0	33.3	120.7	108.8	·	i	0.99
CNC(=O)CN1C(=O)NC2(CCc3ccccc32)C1=O (centres undefined)	5.3	-43.2	81.5	94.8	-3.0	i	1.08
COc1ccc(-c2noc(C3CCCN(C(=O)c4ccc(C)cc4)C3)n2)cc1 (centres undefined)	·	·	·	96.9	·	i	1.07
Cc1ccc2nc(SCC(=O)Nc3ccc(C(N)=O)cc3)[nH]c2c1	-6.9	·	·	101.0	·	i	0.92
Cc1cc(C)n(CCC(=O)N/N=C/c2c(O)ccc3ccccc23)n1	·	·	·	98.6	·	i	0.76
COc1ccc(C2Nc3ccccc3C(=O)N2c2ccc(C)cc2)cc1Cn1cc([N+](=O)[O-])cn1 (centres undefined)	-7.8	10.0	61.1	89.1	-2.0	i	1.01
Cc1ccc2[nH]c(O)c(N=NC(=O)c3ccc(NS(=O)(=O)c4cccs4)cc3)c2c1	·	·	·	98.3	·	i	0.85
O=C(C1CCC1)N1CCc2cc(S(=O)(=O)Nc3ccc4c(c3)OCCO4)ccc21	8.0	-56.2	107.3	103.8	-1.2	i	1.02
CC(=O)Nc1nc2c(c3c1c(=O)oc1ccccc13)CC(C)CC2 (centres undefined)	-2.1	-69.2	113.9	98.9	-1.6	i	1.08
CCOC(=O)c1c(NC(=S)Nc2ccccc2)sc2c1CCCCC2	-8.2	0.0	67.8	103.3	-0.3	i	0.66
CN(C)CCCOC(=O)c1ccccc1Cl	1.1	-9.4	106.8	98.2	-2.9	i	0.95
O=C(CSCc1ccccc1)N1CCN(c2ccc(F)cc2)CC1	-3.9	4.3	112.0	101.2	-1.0	i	0.93
Cn1c(=O)oc2cc(S(=O)(=O)N3CCC(C(=O)NCC4COc5ccccc5O4)CC3)ccc21 (centres undefined)	-22.9	·	·	101.3	-2.3	i	0.64
Cc1ccc(S(=O)(=O)N2CCC(C(=O)Nc3nnc(C4CCCC4)s3)CC2)cc1	-6.5	·	·	114.2	-1.2	i	1.03
O=C(Nc1ccnc(-c2cccnc2)n1)c1cccs1	-2.5	·	·	102.4	·	i	0.92
COC(=O)c1ccccc1NC(=O)CN1CCN(c2ccccn2)CC1	5.8	35.7	116.2	92.3	·	i	0.89
O=C(Nc1cc([N+](=O)[O-])ccc1Cl)c1ccc2c(c1)OCO2	2.1	-11.1	86.8	99.6	·	i	0.85
CC(=O)Nc1ccc(OCC(O)Cn2nc(C)c(Br)c2C)cc1 (centres undefined)	-8.7	43.8	96.7	91.3	-1.3	i	0.93
O=C(CSc1nc2[nH]ncc2c(=O)n1-c1ccccc1)N1CCCCCC1	-1.2	·	·	93.9	·	i	0.91
Cc1ccc2nc(NCCCNC(=O)c3cnccn3)c(C#N)cc2c1	-2.2	·	·	100.4	0.7	i	1.01
COc1cc(OC)nc(NC(=O)NS(=O)(=O)c2ccc(F)cc2)n1	-13.0	·	·	102.7	·	i	1.04
COc1cc(/C=N\NC(=O)CNC(=O)C(c2ccccc2)c2ccccc2)ccc1O	·	·	·	98.1	·	i	1.01
O=C(NC1CCCC1)C(c1cccs1)N(Cc1ccco1)C(=O)c1csnn1 (centres undefined)	-15.8	30.6	138.3	114.1	-1.5	i	0.97
Cc1ccc(Nc2nc(C)c3c(n2)CC(C)CC3=O)c(C)c1 (centres undefined)	·	·	·	102.2	·	i	1.09
C=CCNc1sc(C(=O)c2ccccc2)c(N)c1C#N	14.1	-2.7	98.9	103.1	-1.0	i	0.97
COc1ccc(OCc2cccc(C(=O)NN)c2)cc1	-17.3	0.0	97.6	105.9	-0.6	i	0.92
CCN(CC)C(=O)C1CC(=O)OC1(C)C (centres undefined)	0.0	-40.0	123.3	100.7	-0.2	i	0.98
CN(C)/C=N/c1[nH]ncc1C#N	4.7	-18.5	123.9	108.1	·	i	1.01
Cc1c(NC(=O)C2CC(c3cccc(Br)c3)=NO2)c(=O)n(-c2ccccc2)n1C (centres undefined)	8.0	-16.3	121.0	101.5	·	i	1.04
Cc1oc(-c2ccc(Cl)cc2)nc1CN1CCCC(C(=O)NCCCN2CCOCC2)C1 (centres undefined)	-18.6	·	·	105.9	-2.8	·	·
CCOC(=O)c1ccc(NC(=O)Cn2nnc(-c3ccc(C)cc3)n2)cc1	3.9	50.0	158.9	103.0	-1.3	i	0.93
CSc1nc(SCCN(C)C)c2c3c(sc2n1)COC(C)(C)C3	·	·	·	97.0	·	i	0.84
Cc1nc(Nc2nc3ccccc3o2)nc2c1CCC2	1.1	12.5	85.2	105.8	-0.5	i	0.73
CCOc1cc(/C=N\NC(=O)C2C(=O)NCC2c2ccccc2)ccc1OC (centres undefined)	-3.7	11.1	39.6	122.3	-0.6	i	0.97
COc1ccc(-c2nnc(SCC(=O)NCc3cccs3)n2C(C)C)cc1	6.5	-146.7	119.1	94.6	-2.1	i	0.94
NS(=O)(=O)c1ccc(NC(=S)NC(=O)c2ccc(Br)o2)cc1	1.1	·	·	96.7	·	i	1.03
CCCCN(CC)CCCNC(=O)Cn1nc(Cc2ccncc2)c2ccccc2c1=O	-0.8	-8.7	125.0	100.3	-1.9	i	0.86
Cc1ccc2nsnc2c1S(=O)(=O)NCCc1c(C)[nH]c2ccc(F)cc12	3.2	·	·	105.7	-2.3	i	0.92
Cc1ccc2c(c1)/C(=N/OC(=O)c1ccc(F)cc1)CCS2	-10.8	3.6	114.1	101.5	-4.6	i	0.6

No new results follow: an excerpt of the list.
SMILES	PKD1 inh	INS promoter inh	INS promoter inh cell count	RGS16-Gao	GALR2 ag	HSV augment	HSV augment primary fold
Cc1nc(Nc2nc3ccccc3o2)nc2c1CCC2	1.1	12.5	85.2	105.8	-0.5	i	0.73
CCOc1cc(/C=N\NC(=O)C2C(=O)NCC2c2ccccc2)ccc1OC (centres undefined)	-3.7	11.1	39.6	122.3	-0.6	i	0.97
COc1ccc(-c2nnc(SCC(=O)NCc3cccs3)n2C(C)C)cc1	6.5	-146.7	119.1	94.6	-2.1	i	0.94
NS(=O)(=O)c1ccc(NC(=S)NC(=O)c2ccc(Br)o2)cc1	1.1	·	·	96.7	·	i	1.03
CCCCN(CC)CCCNC(=O)Cn1nc(Cc2ccncc2)c2ccccc2c1=O	-0.8	-8.7	125.0	100.3	-1.9	i	0.86
Cc1ccc2nsnc2c1S(=O)(=O)NCCc1c(C)[nH]c2ccc(F)cc12	3.2	·	·	105.7	-2.3	i	0.92
Cc1ccc2c(c1)/C(=N/OC(=O)c1ccc(F)cc1)CCS2	-10.8	3.6	114.1	101.5	-4.6	i	0.6

Additional entries
SMILES	PKD1 inh	INS promoter inh	INS promoter inh cell count	RGS16-Gao	GALR2 ag	HSV augment	HSV augment primary fold
CCN(CC)C(=S)SCC(=O)Nc1ncc2c(n1)CC(C)(C)CC2=O	·	·	·	96.6	·	i	1.03
COc1ccc(C(=O)CSc2n[nH]c(-c3ccco3)n2)cc1	-2.8	·	·	97.7	-0.9	i	1
S=C(Nc1ccccc1)NC1CCN(Cc2ccccc2)CC1	-3.2	·	·	104.2	·	i	0.89
O=C(NCCN1CCCCC1)c1cc2ccccc2[nH]1	-7.5	12.1	68.5	104.8	-1.4	i	1.06
CSC1=N/C(=C\c2ccc(C)s2)C(=O)S1	1.6	0.0	134.4	102.5	0.1	·	·
CCCCSc1nc2ccccc2[nH]1	-6.4	·	·	113.9	·	i	0.94
CCOC(=O)N1C(=O)C2(CCCCC2)N(c2ccccc2Cl)C1=S	4.4	-11.1	91.2	94.1	-2.2	i	0.81
COC(=O)C(C(C)=O)C1=C/C(=N\S(=O)(=O)c2ccc(C)cc2)c2ccccc2C1=O (centres undefined)	-5.9	-46.9	106.8	95.5	-2.2	?	·
CCCN1C(=O)c2ccc(C(=O)Nc3nccs3)cc2C1=O	-13.4	-475.0	51.3	104.0	-0.8	i	0.89
COC(=O)c1ccccc1N=C(SC)N(C)C	5.5	17.1	88.5	82.3	-1.2	i	0.83
CCn1c(SCC(=O)NCc2ccco2)nnc1-c1c[nH]c2ccccc12	8.6	-57.8	37.5	122.2	0.1	i	0.83
COc1ccccc1CNC(=O)COC(=O)Cn1cnc2ccccc21	0.5	·	·	101.7	·	i	1
CCC(=O)n1nc(-c2ccco2)nc1SCc1ccccc1	-1.8	72.4	88.9	83.5	-2.3	i	1.02
CC(NC(=O)NCCCn1ccnc1)(C(F)(F)F)C(F)(F)F	7.9	·	·	115.6	-1.6	i	0.967
Cc1ccc(C(=O)Nc2cc(=O)n(C)c(=O)n2C)cc1C	-3.5	·	·	101.0	-1.7	i	0.76
CC(C)(C)n1nnnc1CN1CCN(C2CCCC2)CC1	-20.3	-2.7	77.5	104.9	-1.7	i	0.99
Cn1c(C(=O)N2CCN(Cc3ccc4c(c3)OCO4)CC2)cc2c(=O)n(C)c3ccccc3c21	11.8	·	·	102.5	-0.8	i	1.24
CN(Cc1nc(Cc2cccc(F)c2)no1)CC1COCCO1 (centres undefined)	4.5	-21.4	78.6	50.3	·	i	0.99
CC(C(=O)Nc1ccccc1)c1ccc(-c2ccccc2)c(F)c1 (centres undefined)	-3.8	-9.9	183.8	94.4	-0.3	i	1.01
O=C(N/N=C1\CCc2ccccc21)c1ccc(O)cc1	5.5	·	·	103.2	·	i	0.73
Cc1ccc(N2C(=O)N(CC(=O)N3CCCc4ccccc43)C(=O)C2C)cc1 (centres undefined)	-3.9	5.6	258.8	103.0	-1.0	i	0.92
Cn1c(Cl)c(/C=N/OC(=O)C(C)(C)C)c2ccccc21	1.9	-2.3	104.4	102.0	·	i	1.03
CC(C)NC(=O)C1CCN(C2CCN(C(=O)C3=CCCC3)CC2)CC1	-2.8	·	·	104.1	·	i	1.04
COC(=O)Nc1sc2c(c1C(=O)NCc1ccco1)CCCC2	3.0	-18.8	76.8	96.3	-2.9	i	0.78
O=S(Cc1ccc(Cl)cc1)CC(O)(c1ccccc1)c1ccccc1 (centres undefined)	-4.4	·	·	98.1	-0.4	i	0.84
O=C(CCN1C(=O)c2ccccc2C1=O)Nc1ccc(F)cc1	-4.5	-5.0	42.9	98.9	1.5	i	0.96
Cc1ccc(NC(=S)N(C)C)cc1C	·	·	·	101.3	·	i	1.28
CN(C)c1ccnc(NCc2ccccc2)c1C#N	-3.8	42.9	122.6	103.5	-2.0	i	0.81
O=C(CN1CCCCCCC1)N/N=C/c1ccc(F)c(F)c1	-10.9	13.2	61.1	118.8	-1.4	i	0.97
O=[N+]([O-])c1ccc(Cl)c(/C=N/NC(=S)Nc2ccccc2)c1	-8.5	-4.5	141.1	106.6	-0.3	i	0.89
O=C(Nc1nnc(COc2ccc(Cl)cc2)s1)C1CCCO1 (centres undefined)	6.3	38.9	63.8	80.0	-0.3	·	·
CN(Cc1ccccc1)C(=O)COC(=O)c1cc(NS(=O)(=O)c2cccs2)ccc1O	5.3	·	·	98.5	·	i	1.03
Cc1c(Cl)cccc1NC(=O)CNc1cccc(S(=O)(=O)N(C)C)c1	-5.9	-35.1	94.3	102.9	0.0	i	0.85
COc1ccc(CNC(=O)C(=O)NCC2OCCN2S(=O)(=O)c2cccs2)cc1 (centres undefined)	-9.2	-33.3	93.4	·	-2.0	i	0.89
NC(=S)NCc1cccnc1	10.2	·	·	93.0	·	i	0.97
Cc1cccc2sc(NNC(=O)C3COc4ccccc4O3)nc12 (centres undefined)	-2.2	0.0	88.9	·	-0.9	i	0.84
CCOC(=O)C1CCCN(c2c(NCCc3ccccc3)c(=O)c2=O)C1 (centres undefined)	·	·	·	108.4	·	i	1.04
Cn1c(=O)c2c(ncn2CC(O)CNc2ccc(F)cc2)n(C)c1=O (centres undefined)	·	·	·	103.8	·	i	0.87
O=C(CSc1ncc(-c2ccccc2)nn1)NCc1ccco1	1.9	25.6	134.6	102.8	-2.2	i	1.05
CCN(CC)CCNC(=O)c1ccc(Cl)c(S(=O)(=O)Nc2ccccc2OC)c1	-10.1	2.9	54.5	100.6	-2.3	i	0.91
O=C1CCCc2c1cc(C(=O)NCCCN1CCOCC1)c(=O)n2-c1ccc(Cl)cc1	-2.7	·	·	100.8	0.0	i	1.05
O=S(=O)(c1ccc(NCc2ccc(F)cc2)nc1)N1CCCC1	-0.8	-7.1	94.2	114.5	·	i	0.93
